Arbovirus anti – antivirals against arbovirus infection, primary screen, cell-based, full library, 10K replicate subset. arbovirus infection cell-based antiviral screen. inhibition, % at 10 µM. 200,000 compounds, 0.37% hits. AID 1251, 2008;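 active = inhibition from about 30%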;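 also: bluetongue infection of BSR cells; cell survival read as ATP light after 72 h; 0% = infected wells without compound and 100% = uninfected wells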
RecA splice inh – Mtb RecA intein splicing inhibitors, primary screen, biochemical, fluorescence, HTS; Protein RecA (Mycobacterium tuberculosis (strain ATCC 25618 / H37Rv)), P9WHJ3; cell-free RecA intein splicing; inhibition, %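 (about 9 µM by stock and volumes)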; 290,000 compounds, 0.75% hits; in the data active = inhibition above about 30%; inconclusive = no clear call, values can overlap the other calls;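 also: 0% = vehicle wells and 100% = reference inhibitor control wells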
Target sequence (P9WHJ3 whole entry, looked up, canonical isoform): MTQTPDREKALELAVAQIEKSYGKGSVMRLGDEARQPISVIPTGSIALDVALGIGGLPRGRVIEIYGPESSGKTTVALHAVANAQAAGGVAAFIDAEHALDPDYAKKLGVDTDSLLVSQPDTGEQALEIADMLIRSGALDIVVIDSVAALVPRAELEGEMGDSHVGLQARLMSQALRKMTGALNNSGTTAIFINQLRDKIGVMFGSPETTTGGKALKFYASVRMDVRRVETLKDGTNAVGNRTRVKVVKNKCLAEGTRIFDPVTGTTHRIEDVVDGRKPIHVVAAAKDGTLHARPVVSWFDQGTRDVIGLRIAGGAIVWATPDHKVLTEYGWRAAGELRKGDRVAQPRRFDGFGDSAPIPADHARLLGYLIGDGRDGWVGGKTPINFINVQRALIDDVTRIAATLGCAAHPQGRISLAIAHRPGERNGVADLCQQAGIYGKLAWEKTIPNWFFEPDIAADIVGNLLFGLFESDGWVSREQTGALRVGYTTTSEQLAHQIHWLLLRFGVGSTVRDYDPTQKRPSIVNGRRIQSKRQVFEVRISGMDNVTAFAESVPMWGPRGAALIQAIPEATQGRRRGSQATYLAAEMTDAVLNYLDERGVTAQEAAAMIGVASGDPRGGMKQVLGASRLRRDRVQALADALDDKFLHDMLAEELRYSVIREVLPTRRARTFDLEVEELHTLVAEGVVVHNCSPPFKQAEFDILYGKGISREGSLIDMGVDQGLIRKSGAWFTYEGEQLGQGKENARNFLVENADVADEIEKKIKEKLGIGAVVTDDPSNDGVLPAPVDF
Mtb growth – M. tuberculosis H37Rv growth inhibitors, H37Rv strain (AID 1626) | M. tuberculosis H37Rv growth inhibition; higher % means a stronger effect | inhibition, % at 10 µM, or IC50 in µM where a hit was titrated | 220,000 compounds, 0.95% hits;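 active = confirmed in a dose series; inconclusive = inhibition above 80% but not taken into the dose series; inactive = below 80% or under 30% at every dose of the series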;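 also: bacteria incubated seven days before Alamar blue readout; 0% = bacteria only wells and 100% = bacteria with antibiotic wells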
YopH PTP inh – YopH tyrosine phosphatase inhibitors, primary screen, biochemical, fluorescence Ex485/Em525; YopH tyrosine phosphatase [Yersinia enterocolitica]; inhibition, %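 (about 10 µM by stock and volumes)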; 140,000 compounds, 0.16% hits; AID 898, 2007;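 active = inhibition of 50% or more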;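 also: controls were vehicle for no effect and minimum signal wells for full effect; inactives centre near -20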
Mtb betalactam – beta-lactam sensitization of Mtb H37Rv, H37Rv; M. tuberculosis H37Rv growth with meropenem, percent inhibition; hits of this screen are not shown here; inhibition, % at 25 µM; 330,000 compounds, 0.27% hits; AID 434955, 2010;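 active = about 74% or more and at least 40 points above the plate without the antibiotic, then above 30% in a dose series; inconclusive = first-round hits that could not be retested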;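 also: growth measured after seven days incubation then overnight dye step; 0% = bacteria only wells and 100% = bacteria with antibiotic; twin plates without the antibiotic show which effects depend on it; some results filed as inactive read as strong as hits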
Arbovirus anti repeat – second read-out of Arbovirus anti, no call of its own (marks repeat the call); inhibition, %; measured here: 10K subset replicate screen; many hits read low in the repeat;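 first of two repeat runs on a subset; 0% = infected and 100% = uninfected wells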
The depositor's hits bear a star; ? = inconclusive; / = not tested or not shown. A portion of the library; the hit share may differ from the screen's.

SMILES	Arbovirus anti	RecA splice inh	Mtb growth	YopH PTP inh	Mtb betalactam	others
COc1ccc(S(=O)(=O)N2CCCC2=O)cc1N(C)S(C)(=O)=O	/	-1.0	/	/	-1
Cn1c(CCNC(=O)c2cccs2)nnc1SCC(=O)N1CCN(c2ccccc2)CC1	1	-0.3	-4%	-4	-4
COc1cc(C(=O)OCCN2CCOCC2)cc(OC)c1OC	19	1.8	4%	-48	13
COc1ccc(N2C(=O)CCC(C(=O)Nc3ccccn3)C2c2ccc(OC)c(OC)c2)cc1 (stereo unspecified)	10	-3.7	-6%	-21	11	Arbovirus anti repeat=5
COc1ccc(-c2nc3c(=O)n(C)c(=O)[nH]c3n2CCc2ccccc2)cc1	2	-0.7	-8%	-20	-4
CCCSc1nc(NCc2ccco2)c2c3c(sc2n1)COC(C)(CC)C3 (stereo unspecified)	-12	-0.7	-1%	-42	12
Cc1nnc(NC(=O)CSc2nc(CC(C)C)nc3c2c(=O)n(C)c(=O)n3C)s1	-3	1.5	-3%	/	-11
COCCN1Cc2cccc(C(=O)NCCc3ccccc3)c2C1=O	/	0.3	/	/	-4
Cc1ccc(C(=O)NCCSC(C)(C)C)cc1[N+](=O)[O-]	0	1.9	3µM*	-21	100
COc1ccc(C(C(=O)Nc2ccc3c(c2)OCO3)N(C)C(=O)Cc2c[nH]c3ccccc23)cc1 (stereo unspecified)	-14	-1.0	11%	-25	11
COc1ccc(-c2cnnn2-c2ccc(NC(=O)c3ccc(S(=O)(=O)N4CCCCC4)cc3)cc2)cc1	-1	7.1	77%	-19	89
COc1ccc(C)cc1N1C(=N)/C(=C2/Nc3ccccc3S2)C(c2ccccc2)C1=O (stereo unspecified)	-32	/	?	-3	85
Cc1ccccc1N1C(=O)CC(Nc2ccc3c(c2)OCO3)C1=O (stereo unspecified)	0	-4.2	?	/	48
COCCN(C(=O)COC(=O)c1ccco1)c1c(N)n(Cc2ccccc2)c(=O)[nH]c1=O	/	-0.5	/	/	-4
COc1ccc(N2CCN(C(=O)CSc3nnc4c(C)cc5c(C)cc(C)cc5n34)CC2)cc1	-14	-3.1	4%	-25	6
O=C(Nc1cccc(NC(=O)c2cccnc2)c1)c1cccnc1	10	-2.2	-10%	0	-1
CCCCC(CC)CNC(=O)C1CC=CCC1C(=O)O (stereo unspecified)	4	-2.8	-8%	-25	0
N#CNC(=Nc1cccc(C(F)(F)F)c1)SCc1ccc(C(=O)O)cc1	/	19	-8%	/	1
Cc1cc(O)c(C(C)C)cc1NC(=O)c1ccc(Cl)cc1	-6	7.6	7%	-37	70
Cc1ccc(C)c(NC(=S)NC(NC(=O)Cc2cccc3ccccc23)C(Cl)(Cl)Cl)c1 (stereo unspecified)	-32	0.7	4%	-22	-2
C=CCn1c(SCc2nc3ccccc3c(=O)[nH]2)nc2ccccc2c1=O	7	4.0	-4%	-21	-10
COC(=O)c1ccc(COc2ccccc2/C=C(\C#N)C(=O)Nc2c(C)cccc2C)cc1	8	0.7	-1%	-33	-2
C/C(=N\NC(=O)C1(C)CC1(Br)Br)c1ccc(C)cc1C (stereo unspecified)	/	5.2	/	/	11
CN(C)C=NC(=O)c1cc(C(=O)c2ccc(F)cc2)c[nH]1	0	0.9	-2%	/	-4

Pulled one by one from the entries so far (six):
SMILES	Arbovirus anti	RecA splice inh	Mtb growth	YopH PTP inh	Mtb betalactam	others
C/C(=N\NC(=O)C1(C)CC1(Br)Br)c1ccc(C)cc1C (stereo unspecified)	/	5.2	/	/	11
CN(C)C=NC(=O)c1cc(C(=O)c2ccc(F)cc2)c[nH]1	0	0.9	-2%	/	-4
Cc1ccc(C)c(NC(=S)NC(NC(=O)Cc2cccc3ccccc23)C(Cl)(Cl)Cl)c1 (stereo unspecified)	-32	0.7	4%	-22	-2
O=C(Nc1cccc(NC(=O)c2cccnc2)c1)c1cccnc1	10	-2.2	-10%	0	-1
C=CCn1c(SCc2nc3ccccc3c(=O)[nH]2)nc2ccccc2c1=O	7	4.0	-4%	-21	-10
COc1ccc(N2CCN(C(=O)CSc3nnc4c(C)cc5c(C)cc(C)cc5n34)CC2)cc1	-14	-3.1	4%	-25	6

Next section.
SMILES	Arbovirus anti	RecA splice inh	Mtb growth	YopH PTP inh	Mtb betalactam	others
COCc1cc(C)nc(OCC(=O)N/N=C/c2ccc(OC)c(OC)c2)c1C#N	6	-2.1	-3%	-22	3
CC1=NN(C(=O)c2ccc(Cn3cc(Br)c([N+](=O)[O-])n3)o2)C(O)(C(F)(F)F)C1 (stereo unspecified)	24	-0.4	12%	-5	19
CC(C)(C)C(=O)/C(C#N)=C/c1cccs1	/	4.8	-4%	/	-3
Cc1noc(C)c1-c1nc(CS(=O)(=O)c2ccc(F)cc2)no1	/	0.4	-7%	/	-6
CCOc1ccccc1NC(=O)N1CCC2(CC1)OCCO2	0	-4.9	/	-24	3
c1ccc(-n2nnnc2-n2nnc3ccccc32)cc1	16	0.1	12%	-1	-1
Cc1ccc(S(=O)(=O)c2nc(Nc3ccccc3)sc2Cl)cc1	-40	18	-1%	-25	/
O=C(CN(C(=O)c1csnn1)c1cccc(F)c1)NC1CCCC1	/	-4.1	/	/	-10
CC(C)Cn1cc(C(=O)NCc2cccs2)c2c3ccccc3n(C)c2c1=O	-6	1.3	-6%	-26	-12
Cc1ccc2c(c1)NC(=O)C(CC(=O)NCc1ccc(F)cc1)O2 (stereo unspecified)	3	-1.4	-9%	-44	2
Cc1cc(N2CCOCC2)nc2ccc(NC(=O)CCC(=O)N3CCN(c4cccc(C(F)(F)F)c4)CC3)cc12	/	1.9	/	/	75
Cc1cc2c(=O)oc(-c3ccc(F)cc3)nc2s1	9	8.0	6%	/	19
CSc1nc(S(=O)(=O)c2ccc(C)cc2)c(Cl)s1	11	-1.3	5%	/	-1
Cc1noc(C)c1CSCC(=O)OCC(=O)N1CC(=O)Nc2ccccc21	3	0.6	0%	-27	-5
CC(=O)Nc1ccc(-c2csc(N/N=C\c3ccncc3)n2)cc1	/	5.4	3%	/	-3
COc1ccc(S(=O)(=O)N2CCc3ccccc32)cc1C(=O)OCc1c(C)noc1C	1	7.6	-7%	-27	-1
COc1ccc(/C=N/NC(=O)c2ccc(C)cc2)cc1CN1CCN(c2ccc(F)cc2)CC1	-3	-1.8	4%	-45	-8
COc1ccc(OC)c(C(=O)NC(CC(N)=O)c2ccc(N3CCC(N4CCCC4)CC3)c([N+](=O)[O-])c2)c1 (stereo unspecified)	/	0.4	-4%	/	-6
Cc1ccc(COc2ccc(-c3nnco3)cc2)cc1	/	4.1	/	/	9
CC1=C/C(=N\Nc2ccccc2[N+](=O)[O-])CC(C)(C)C1	-6	15	6%	-24	2
O=C(CN1C(=O)c2ccccc2C1=O)Nc1ccc(-c2nc3ccccc3o2)cc1	-2	-1.2	-16%	-8	4
CNC(=O)C1C(=S)NC(N)=C(C#N)C1c1ccccc1 (stereo unspecified)	-32	-3.4	1%	12	-2
Cc1cc(C(=O)C[N+]2(C)CCOCC2)c(C)n1-c1ccc(Br)cc1	18	0.2	7%	/	-3
COC(=O)CNC(c1ccccc1)c1cc(C)ccc1NS(=O)(=O)c1ccc(C)cc1 (stereo unspecified)	-14	1.5	-14%	-30	2

By substructure: those above containing a tert-butyl group.
SMILES	Arbovirus anti	RecA splice inh	Mtb growth	YopH PTP inh	Mtb betalactam	others
Cc1ccc(C(=O)NCCSC(C)(C)C)cc1[N+](=O)[O-]	0	1.9	3µM*	-21	100
CC(C)(C)C(=O)/C(C#N)=C/c1cccs1	/	4.8	-4%	/	-3

(continued)
SMILES	Arbovirus anti	RecA splice inh	Mtb growth	YopH PTP inh	Mtb betalactam	others
CCOC(=O)c1ccc(NC(=S)N2CCC(C(N)=O)(N3CCCCC3)CC2)cc1	-2	-0.5	-6%	/	-2
CC(=O)Oc1ccc(C(=O)OCC(=O)c2c(N)n(C)c(=O)n(C)c2=O)cc1OC(C)=O	5	-1.6	0%	/	-5
COc1ccc(CCNC(=O)c2n[nH]c(=O)c3ccccc23)cc1	10	3.4	-2%	24	-15
Cc1cccc(NC(=S)N2CCN(S(C)(=O)=O)CC2)c1	/	0.7	/	/	-3
COc1cc(NS(=O)(=O)c2c(C)oc3c(F)c(F)c(F)c(F)c23)cc(OC)c1OC	/	22	/	/	4
COc1ccc2[nH]c(C(=O)N3CCN(c4ccccc4F)CC3)c(C)c2c1	/	-0.9	/	/	-1
C=CCn1c(SCC(=O)Nc2cccnc2Cl)nnc1-c1ccc(Cl)cc1	-3	0.0	2%	18	3
O=C(NCc1cccs1)c1ccc2c(c1)ncn2C1CCCC1	-10	-0.2	-7%	-47	15
O=C(CN1C(=O)C2CCCCN2C(=O)c2ccccc21)Nc1ccc(F)cc1 (stereo unspecified)	2	-0.4	1%	/	3
CCOc1ncccc1C(=O)Nc1ccc(C)cn1	/	-1.0	/	/	1
CC(=O)Nc1ccc(C(=O)OCC(=O)NC(=O)NC(C)(C)C)cc1	7	-2.0	-1%	-22	7
CN(CC(=O)N1CCN(c2ccccn2)CC1)S(=O)(=O)c1ccccc1	6	2.2	-8%	-18	-1
COc1cc(/C=N/NC(=O)CNC(=O)c2cccs2)ccc1O	0	-2.6	1%	-28	6
O=C1CC2(CCN(C(=O)c3ccc(F)cc3)CC2)Oc2ccccc21	/	-0.6	/	/	-9
Cc1cc2[nH]c(=O)c(=O)[nH]c2cc1S(=O)(=O)N1CCN(c2cccc(C)c2C)CC1	/	2.4	/	/	?
CC(C)C(NS(=O)(=O)c1cccc2nsnc12)C(=O)NCc1ccco1 (stereo unspecified)	/	-3.4	7%	/	-2
O=c1c2cc(NC(=S)N3CCCCC3)ccc2nc2n1CCCCC2	6	/	3%	/	-5
Cc1ccc(/C=C/S(=O)(=O)NCC(=O)OCC(=O)N2CC(=O)Nc3ccccc32)cc1	/	3.2	1%	/	0
O=C(CS(=O)CC(=O)N(CC(=O)NC1CCCC1)c1ccccc1F)Nc1ccc(F)cc1 (stereo unspecified)	/	-2.0	/	/	10
CN(C)NC(=O)c1ccsc1NC(=O)c1ccc(S(=O)(=O)N(C)C)cc1	1	-1.3	-3%	/	1
CC(C)CCN1CCN(Cc2cccs2)CC1CCO (stereo unspecified)	-3	-1.6	2%	/	3
COc1ccc(OC)c2[nH]c(=O)c(CCNC(=O)c3ccc(S(=O)(=O)N4CCCCC4)cc3)cc12	9	1.1	/	-21	1
CCN(CC)S(=O)(=O)c1cccc(C(=O)NC2CCCCC2)c1	3	-0.6	4%	-31	1
COc1cccc(OC)c1-c1nnc(-c2cn(C)c3ccccc23)o1	2	-1.7	-6%	-38	-3
CCc1nn(C(C)C(=O)N2CC(C)CC(C)C2)c(=O)c2cc3occc3n12 (stereo unspecified)	/	2.3	/	/	-7
CC(NC(=O)CNC(=O)C1CCCCC1)c1ccc(S(N)(=O)=O)cc1 (stereo unspecified)	/	1.1	/	/	2
CCCCNC(=O)c1ccccc1NC(=O)CN(c1ccccc1)S(=O)(=O)N(C)C	-7	-3.8	7%	-6	7
OC(CNc1nc(-c2cccnc2)nc2ccccc12)c1ccccc1 (stereo unspecified)	/	1.2	/	/	7
O=C1CC(C(=O)N2CCC(N3CCC(C(=O)NC4CC4)CC3)CC2)c2ccccc21 (stereo unspecified)	4	1.8	0%	/	0
O=C(O)CSCC(=O)N1CCN(c2nc3cc(Cl)ccc3s2)CC1	/	0.3	/	/	-6
O=C(CSC1=NC(=O)C(Cc2ccccc2)C(=O)N1)NC1CCCCC1 (stereo unspecified)	-1	-0.7	0%	-33	8
CCCCn1c(=O)[nH]c(=O)c2c1nc(-c1cc(Br)c(OCC)c(OC)c1)n2C	/	1.7	/	/	0
Cc1cccc(CC(=O)Nc2sc(C(C)C)cc2C(=O)N2CCOCC2)c1	/	1.3	/	/	0
COc1ccc(-c2nnc(SCC(=O)NNC(=O)Cc3ccccc3)n2C)cc1OC	5	2.2	50%	-9	-1
O=C(CSc1ccccc1)Nc1ccc(NC(=O)c2ccco2)cc1	4	1.2	-6%	-12	-4
COCCCNC(=S)NNC(=O)C(O)(c1ccccc1)c1ccccc1	7	-0.8	2%	/	0
Cc1ccc(-n2nnnc2CNC(=O)c2ccc3c(c2)OCO3)cc1C	/	0.8	/	/	-6
CCCCN=c1scc(-c2ccc3c(c2)NC(=O)CO3)n1N=C1CCCC1	-27	4.3	-2%	-6	-7
Cc1ccc(CSc2ncn(-c3ccccc3)n2)cc1	3	-2.2	-1%	-10	6
CCOC(=O)C(C)Sc1nnc(Cc2cc(=O)[nH]c(=O)[nH]2)n1-c1ccc(OCC)cc1 (stereo unspecified)	10	/	-12%	3	4	Arbovirus anti repeat=2

Assay outcomes deposited in PubChem by several laboratories.
